TSHR ag: agonists of human thyroid stimulating hormone receptor; P16473; HEK293-CNG-TSHR cells (CNG channel as cAMP sensor), membrane potential dye, cAMP; Potency, µM (doses to about 57.1 µM), without a hit: at the highest dose activation, usual class: activators; 73,000 tested, 0.48% active; active = well fitted activation curve of enough size with the parental cells flat; inconclusive = any curve in the parental cells; inactive = parental cells flat and receptor cells flat or falling; note: potency is the fitted concentration of half-maximal effect; % of control where 0% means no effect; weak receptor curves with flat parental cells got no call and are not listed
Target sequence (P16473 whole entry, looked up): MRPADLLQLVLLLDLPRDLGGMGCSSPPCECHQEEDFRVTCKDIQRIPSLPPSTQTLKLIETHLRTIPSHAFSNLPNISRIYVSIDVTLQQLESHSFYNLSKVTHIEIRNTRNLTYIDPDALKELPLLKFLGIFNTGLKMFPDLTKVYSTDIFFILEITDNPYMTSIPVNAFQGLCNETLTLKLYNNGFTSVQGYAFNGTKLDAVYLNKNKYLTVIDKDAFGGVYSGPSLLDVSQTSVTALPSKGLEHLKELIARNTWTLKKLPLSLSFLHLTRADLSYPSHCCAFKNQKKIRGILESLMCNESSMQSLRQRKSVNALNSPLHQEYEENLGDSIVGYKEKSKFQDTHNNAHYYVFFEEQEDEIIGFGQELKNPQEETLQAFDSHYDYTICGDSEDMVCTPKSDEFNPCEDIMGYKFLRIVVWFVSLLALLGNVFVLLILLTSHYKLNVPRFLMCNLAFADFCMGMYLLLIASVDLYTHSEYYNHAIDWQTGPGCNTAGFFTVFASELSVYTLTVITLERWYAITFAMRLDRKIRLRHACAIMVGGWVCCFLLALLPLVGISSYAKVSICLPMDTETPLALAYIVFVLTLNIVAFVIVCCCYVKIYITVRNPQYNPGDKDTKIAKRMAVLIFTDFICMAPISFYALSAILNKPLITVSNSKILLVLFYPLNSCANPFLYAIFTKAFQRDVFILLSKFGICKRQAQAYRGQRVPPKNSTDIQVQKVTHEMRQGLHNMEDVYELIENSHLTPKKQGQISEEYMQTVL
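cAMP rise detected as CNG-channel membrane depolarization by fluorescent dye (emission 590 nm), 30 min after compound, following 60 min dye loading containing 100 uM RO 20-1724 at room temperature. Cells: TSHR/CNG HEK 293, with parental CNG HEK 293 as control.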
A647 fluor: compound autofluorescence in A647 spectral region. Compound fluorescence, A647 channel (570/671 nm), Tris buffer. max dye-equivalent concentration, M. 59,000 tested, under 10 active; active means above 1 µM dye equivalent; inconclusive means 0.1 to 1 µM; inactive means 0.1 µM or less;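 note: values scaled relative to a standard on each plate; highest value over a series up to 38 µM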
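Compound fluorescence was measured in 100 mM Tris buffer, pH 8.0, after 15 min at room temperature, using 570 nm excitation and 671 nm emission filters. Signal was normalized to a per-plate Alexa 647 standard curve and expressed as dye-equivalent concentration at each compound concentration.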
Resorufin fluor: compounds fluorescent in resorufin spectral region. Compound fluorescence, resorufin region 547/598 nm, buffer; hits give high values. max dye-equivalent concentration, M. 59,000 tested, 0.04% active. AID 588; active = above 10 nM dye equivalent; inconclusive = 1 to 10 nM; inactive = 1 nM or less; a few of its hits are not listed in these tables; note: highest value over a series up to 38 µM
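Compounds in 100 mM Tris buffer, pH 8.0, incubated 15 min at room temperature, then read with 547 nm excitation and 598 nm emission filters. Fluorescence was converted to dye-equivalent concentration using an on-plate six-point resorufin standard curve.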
AID923: qHTS Assay for Allosteric/Competitive Inhibitors of Caspase-1: Spectroscopic Profiling in AFC Spectral Region; compound fluorescence, AFC spectral region (405/520 nm); almost no hit is shown here; Potency, µM (titrated, usually from 57.5 µM), inactives show top-dose fluorescence increase, usual class: activators; 75,000 tested, 1.1% active; active = well fitted activation curve with a large enough effect; inconclusive = small, poorly fitted or top-dose-only effect;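 note: potency is the fitted concentration of half-maximal effect; 0% is about no effect; scaled to a free AFC standard on each plate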
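Titrations up to 57 uM read every 20 sec for 3 min (405/520 nm) with 50 nM caspase 1 and 5 uM Ac-WEHD-AFC, pH 7.5 HEPES buffer. Fluorescence-vs-time intercept gave baseline, scaled against on-plate AFC standard.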
A488 fluor: compound autofluorescence in A488 spectral region. compound autofluorescence, A488 spectral region, dye equivalency; hits give high values. max dye equivalency, M. 59,000 tested, 0.1% active. AID 591; active = above 10 nM dye equivalent; inconclusive = 1 to 10 nM; inactive = 1 nM or less; about half of its hits are not listed in these tables;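 note: highest value over a series up to 38 µM; compound alone in buffer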
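Autofluorescence read at ex 480/em 540 nm after 15 min RT in 100 mM Tris pH 8.0; compound signal normalized to A488 standard series on each plate, reported as dye-equivalent concentration at each test concentration.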
* = called active by the depositor; i = inactive; ? = inconclusive; · = not tested or not shown; & = joins results of further samples; [ ] = another dose, or the depositor's remark. An excerpt, so the mix of outcomes need not match the whole.

SMILES | TSHR ag | A647 fluor | Resorufin fluor | AID923 | A488 fluor
Cc1sc2ncnc(Sc3nnnn3-c3ccc(Cl)cc3)c2c1C | ? | 1.5e-08 | i | -0.3% | i
NC(=O)C1CCC(NC(=O)OCc2ccccc2)CC1 (stereo not given) | · | 3.1e-08 | i | -1.1% | i
O=C(OCC(=O)N1CCOCC1)C(c1ccccc1)c1ccccc1 | 6% | 1e-09 | i | -1.1% | i
O=C(c1c(Cl)nc2sccn12)N(C(=O)c1c(Cl)nc2sccn12)c1ccc(Cl)cn1 | 11% | 7.1e-09 | i | -1.1% | i
Cn1nc(-c2ccc(N3CCCCC3)c(NC(=O)c3ccco3)c2)c2ccccc2c1=O | ? | 1e-09 | i | -2.0% | i
CCCCNC(=O)CC1C(=O)N(Cc2ccccc2)C(C)c2nc3ccccc3n21 (stereo not given) | ? | 4.1e-08 | i | -0.5% | i
Cc1cccc(NC(=O)CCc2ccc(C)o2)c1 | -6% | 1e-09 | i | 1.4% | i
COc1ccc(N=C2SC(CC(=O)Nc3ccc(OC)cc3OC)C(=O)N2C)cc1 (stereo not given) | -7% | 2e-08 | i | -0.9% | i
CCOC(=O)c1sc(NC(=O)CSc2nc3c(cc2C#N)CCC3)c(C#N)c1C | 32% | 1e-09 | i | 5.0% | i
CSCCC(NS(=O)(=O)c1ccc2c(c1)oc(=O)n2C)C(=O)NC1CCC(C)CC1 (stereo not given) | 12% | · | · | 2.6% | ·
COC(=O)c1cc(OC)c(OC)cc1NC(=O)CN1CCOCC1 | 5% | 9.4e-09 | i | 2.5% | i
Cc1ccc(SCC(=O)NCC(C)C)cc1 | 9%[11.4 µM] | · | · | 1.2% | ·
CC(=O)N1CCCc2cc(S(=O)(=O)CCC(=O)N3CCN(c4cccc(C)c4)C(C)C3)ccc21 (stereo not given) | 0% | · | · | -5.6% | ·
Clc1ccc(Cn2ncc3c(NCCN4CCOCC4)ncnc32)cc1 | ? | 4.3e-09 | i | -1.0% | i
CC(CO)(CO)N=Cc1cc(I)cc(I)c1O | 3%[11.4 µM] | 1e-09 | i | 3.7%[11.5 µM] | i
O=C(CN1CCOc2ccccc21)N1CCCC1 | 12% | · | · | -0.8% | ·
CC(=O)Nc1cccc(NC(=O)C2CCCN2C(=O)Nc2ccccc2C)c1 (stereo not given) | -1% | 4.6e-08 | i | 0.0% | i
COc1ccc(C(=O)Nc2cc(-c3nn4c(C)nnc4s3)ccc2C)cc1 | 16% | · | · | 4.3% | ·
Cc1cc2cc(C(c3nnnn3CC3CCCO3)N3CCCc4ccccc43)c(=O)[nH]c2cc1C (stereo not given) | -4% | 1e-09 | i | 16% | i
Cc1c(C2OC(=O)C3(CCCCC3)C(=O)C2(C)C)c(=O)n(-c2ccccc2)n1C (stereo not given) | · | 3.5e-08 | i | 0.6% | i
CCN(CC)C(=O)CSc1nc2cc3c(cc2c(=O)n1Cc1ccc2c(c1)OCO2)OCO3 | · | 1e-09 | i | 0.4% | i
C=CCOC(=O)Nc1ccc(Cl)cc1NC(=O)OCC=C | 26% | 3.9e-08 | i | -1.1% | i
O=C1[C@H]2[C@H]3[C@H](O)[C@H](O)C/C(=N/OCc4ccccc4)[C@H]3CC[C@@H]2C(=O)N1Cc1ccccc1 | -23%[11.4 µM] | · | · | 0.2%[11.5 µM] | ·
O=C(Nc1ccc2c(c1)OCO2)c1cnn2c(C(F)(F)F)cc(-c3ccco3)nc12 | -18% | · | · | -3.5% | ·
CCOc1cccc(C2C(C(=O)c3ccc(C)o3)=C(O)C(=O)N2c2nccs2)c1 (stereo not given) | 18% | 1e-09 | i | 11% | ?
COc1cc(Cl)c(S(=O)(=O)NCc2cccnc2)cc1Cl | -9% | · | · | 2.5% | ·
CC1CCCN(c2ccc(C(=O)NCCc3ccccc3)cn2)C1 (stereo not given) | 7% | 1e-09 | i | -0.8% | i
C[C@]1(O)CC[C@H]2[C@H]3CC=C4N5CCN=C5CC[C@@]4(C)[C@H]3CC[C@@]21C | 1%[11.4 µM] | 1e-09 | i | 0.8%[11.5 µM] | i
O=C(Cc1ccc(-c2ccccc2)cc1)N1CCOCC1 | 1% | 1.2e-08 | i | 1.1% | i
N=c1ccn2c(n1)O[C@H]1[C@@H](OP(=O)(O)O)[C@H](CO)O[C@H]12 | 0%[11.4 µM] | 1.1e-08 | i | 4.8%[11.5 µM] | i
Cn1c2c(c(=O)n(C)c1=O)CN(CCN1CCNCC1)CN2 | 5% | · | · | 2.7% | ·
O=C(OCCN(CCOC(=O)c1ccncc1)S(=O)(=O)c1cccs1)c1ccncc1 | 28%[11.4 µM] | 8.9e-09 | i | -0.4% | i
O=C(Nc1nc2c(s1)CCCC2)c1cc2n(n1)C(C(F)(F)F)CC(C1CC1)N2 (stereo not given) | ? | 1.4e-08 | i | -0.9% | i
CC(=O)Nc1ccc2c(c1)C(=Nc1ccc(C(=O)O)cc1)c1ccccc1-2 | -1%[11.4 µM] | 2.5e-08 | i | -2.9%[11.5 µM] | i
Nc1cc(OC(=O)c2ccccc2Br)nn1S(=O)(=O)c1ccccc1 | 5%[11.4 µM] | 1e-09 | i | -1.4% | i
Clc1cccc(-c2nc(-c3ccccn3)no2)c1 | ? | 2.1e-08 | i | 0.0% | i
O=C(CCc1ccc(S(=O)(=O)N2CCOCC2)cc1)Nc1cc(Cl)ccc1N1CCOCC1 | ? | 2.3e-08 | i | -0.9% | i
OCC1OC(C#Cc2ccccc2)C=CC1OCc1ccccc1 (stereo not given) | ? | · | · | -2.7%[11.5 µM] | ·
CN(Cc1ccco1)c1ncncc1-c1ccccc1C(F)(F)F | ? | 1e-08 | i | 2.8% | i
N#CC1=C2SCN(c3ccccc3)CN2C(=O)CC1c1ccccc1Cl (stereo not given) | 3% | · | · | -3.3% | ·
Cc1nnc(NC(=O)CSc2nnc(Cc3cccn3C)n2-c2cccc(C(F)(F)F)c2)s1 | -5% | · | · | -0.3% | ·
N#CCCN1CCn2c1nc1ccccc12 | 0% | 4.2e-08 | i | 0.5% | i
CS(=O)(=O)c1nc(-c2ccco2)cc(C(F)(F)F)n1 | 23% | 1e-09 | i | -1.2% | i
O=C(CSc1ccc2nnc(-c3cccnc3)n2n1)NCc1ccc2c(c1)OCO2 | -1% | · | · | 2.1% | ·
CCOc1cccc(=O)c2c(C)n(C)c(C)c12 | 10% | 4.3e-09 | i | 0.0% | i

Brought forward from above: seven entries, then new ones.
SMILES | TSHR ag | A647 fluor | Resorufin fluor | AID923 | A488 fluor
CN(Cc1ccco1)c1ncncc1-c1ccccc1C(F)(F)F | ? | 1e-08 | i | 2.8% | i
N#CC1=C2SCN(c3ccccc3)CN2C(=O)CC1c1ccccc1Cl (stereo not given) | 3% | · | · | -3.3% | ·
Cc1nnc(NC(=O)CSc2nnc(Cc3cccn3C)n2-c2cccc(C(F)(F)F)c2)s1 | -5% | · | · | -0.3% | ·
N#CCCN1CCn2c1nc1ccccc12 | 0% | 4.2e-08 | i | 0.5% | i
CS(=O)(=O)c1nc(-c2ccco2)cc(C(F)(F)F)n1 | 23% | 1e-09 | i | -1.2% | i
O=C(CSc1ccc2nnc(-c3cccnc3)n2n1)NCc1ccc2c(c1)OCO2 | -1% | · | · | 2.1% | ·
CCOc1cccc(=O)c2c(C)n(C)c(C)c12 | 10% | 4.3e-09 | i | 0.0% | i
Clc1ccc(CSc2nnc(-c3ccccn3)n2Cc2ccco2)c(Cl)c1 | 10% | 1e-09 | i | -0.4% | i
COc1ccc(NC(=O)Nc2cc(C)ccc2OC)cc1 | -6% | 2e-08 | i | 4.9% | i
COc1cccc(C2NC(=O)NC(C)=C2C(=O)Nc2ccc(C)cc2)c1 (stereo not given) | 5% | · | · | -2.8% | ·
COc1ccc(NC(=O)C2CCCN2C(=O)OCc2ccccc2)c(OC)c1 (stereo not given) | 8%[11.4 µM] | 1e-09 | i | -2.6% | i
CC1CCN(CC(O)COc2cccc(F)c2)CC1 (stereo not given) | 2% | · | · | 0.5% | ·
O=C(NCc1ccco1)NC12CC3CC(CC(C3)C1)C2 | 22% | · | · | 0.0% | ·
O=C(Oc1ccc2c3c(c(=O)oc2c1)CCCC3)c1ccco1 | 29% | · | · | 17% | ·
Fc1ccc([C@H]2CCNC[C@H]2COc2ccc3c(c2)OCO3)cc1 | 21% | · | · | 0.2% | ·
Cc1ccccc1Cc1c(C)nc2ncnn2c1C | 14% | 1e-09 | i | -1.1% | i
COc1ccc(CSc2nnc3n(C)c(=O)c4c5c(sc4n23)CCCC5)cc1 | · | 1e-09 | i | · | i
CCCC1C(C(=O)OCC)=C(C)NC(C)=C1C(=O)OCC | ? | · | · | 1.9% | ·
Nc1cccc2nsnc12 | -7%[11.4 µM] | 3.3e-09 | i | · | i
CCOCCCNC(=O)C(c1ccc(Cl)cc1)N1CCC2(CC1)OCCO2 (stereo not given) | 5% | 1.9e-09 | i | 0.2% | i
COc1ccc(-n2nnnc2SCC(=O)N2CCCC2)cc1OC | ? | 6.5e-09 | i | 0.0% | i
COc1ccc(C)cc1NC(=O)CN(c1ccc(F)cc1)S(C)(=O)=O | 3% | · | · | -0.7% | ·
COc1cc(/C=C/C(=O)CC(=O)/C=C/c2ccc(O)c(OC)c2)ccc1O | ? | 2.9e-08 | i | 18%&17% | i
CN(C(=O)c1ccc(NC(=O)c2cnccn2)cc1)C1CCCCC1 | 5% | 4.4e-09 | i | 2.7% | i
CN(Cc1ccccc1)C(=O)CCNC(=O)Cn1cnc2ccccc2c1=O | -2%[11.4 µM] | 2e-08 | i | 0.0% | i
Cc1ccc(OCC(O)Cn2c(=N)n(CCN3CCOCC3)c3ccccc32)cc1 (stereo not given) | ? | 1e-09 | i | 0.7% | i
CCN(CC)C(=O)CSC(=Nc1ccccc1F)NC#N | -4% | 1.5e-08 | i | 3.8% | i
O=C(Nc1ccccc1)N1CCCC2(CCN(C(=O)c3csnn3)CC2)C1 | ? | 7.9e-09 | i | -0.7% | i
O=C(Nc1ccc2c(c1)OCO2)C1CCCN1C(=O)Nc1cccc(F)c1 (stereo not given) | ? | 1e-09 | i | 2.4% | i
O=C(CS(=O)(=O)Cc1ccccc1)NCc1ccc2c(c1)OCO2 | 2% | 1e-09 | i | -1.2% | i
COc1ccc(-c2ccc(-c3noc(C4CCCCC4)n3)c(OC)n2)cc1 | 12% | 7.9e-09 | i | 20% | i
O=C(O)c1ccccc1C(=O)N1CCN(c2cccc(Cl)c2)CC1 | 3% | 2.8e-08 | i | 0.7% | i
Cn1c(C(=O)N2CCN(c3ccccc3F)CC2)cc2c(=O)n(C)c3ccccc3c21 | 2% | · | · | 2.2% | ·
COC(=O)c1ccc(C2/C(=C(/O)c3ccc(OC(C)C)cc3)C(=O)C(=O)N2c2cc(C)on2)cc1 (stereo not given) | 15% | 8e-09 | i | -0.1% | i
COc1ccc(C2/C(=C(/O)c3ccc4c(c3)CC(C)O4)C(=O)C(=O)N2CCN2CCOCC2)cc1 (stereo not given) | 3% | 4.9e-08 | i | 0.4% | i
COc1ccc2cc(C(=O)NCc3ccco3)c(=Nc3ccc(C(=O)O)cc3)oc2c1 | · | 3.3e-08 | i | 0.6% | i
CC1CC(C)CN(C(=O)c2cn(C)c3ccc(S(=O)(=O)N(C)C)cc3c2=O)C1 (stereo not given) | -1% | · | · | -3.6% | ·
O=C(c1ccc(CS(=O)(=O)c2ccccc2)o1)N1CCN(c2ncccn2)CC1 | 8% | · | · | 2.7% | ·
Cc1c(CN(C)CCc2ccccc2)c(=O)n(-c2ccccc2)n1C | -1%[11.4 µM] | · | · | 0.2% | ·
C=CCc1ccc(OCCOCCNCCOC)c(OC)c1 | 8% | · | · | 0.3% | ·

From PubChem BioAssay
